# Assay outcomes: PubChem, National Center for Advancing Translational Sciences (NCATS)
# ClpP mod – qHTS Assay for Activators of ClpP; actives 1.9% (n = 340,000); purified B. subtilis ClpP, FRET peptide cleavage, 20 min; Potency, µM (highest dose often 57.5 µM), without a hit: top-dose activity change, negative = active; active = well fitted falling curve with a large enough effect; inconclusive = small, poorly fitted or top-dose-only effect; inactive = no such curve, though single readings can be large or run the other way; note: the source files actives as falling curves though it sought activators and does not explain the sign; nearly all actives have a fitted effect of over 65% in size; many hits overshoot -100%
# Target sequence (P80244 whole entry, looked up): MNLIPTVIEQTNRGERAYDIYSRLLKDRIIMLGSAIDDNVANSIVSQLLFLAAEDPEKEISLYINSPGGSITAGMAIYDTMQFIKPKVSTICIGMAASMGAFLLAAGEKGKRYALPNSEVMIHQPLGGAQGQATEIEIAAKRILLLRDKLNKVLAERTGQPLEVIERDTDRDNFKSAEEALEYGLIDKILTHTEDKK
#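 FRET quenching reversal measured ClpP activation: 10 microg/mL B. subtilis ClpP at pH 8 with the FRET-FV decapeptide, read at 430 nm after 320 nm excitation. The 20-min minus 0-min signal was scaled between DMSO/no-enzyme wells and ADEP (5.8 microM final).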
# PINK1 expr mod – changes PINK1 expression | PINK1 immunofluorescence, high-content cytometry, 24 h | Potency, µM (top dose mostly 76.6 µM), inactives show at the highest dose activation (PINK1 increase), hits mostly activators | actives 0.2% (n = 410,000) | AID 624263; active = well fitted activation curve with a large enough effect; inconclusive = small, poorly fitted or top-dose-only effect; inactive = flat fitted curve, though single readings scatter; cell line not stated here;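 note: % of control where 0% means no effect; nearly all actives have a fitted effect of over 65% in size; a mitochondrial uncoupler was the plate control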
#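 PINK1 protein, normally rapidly degraded, was detected by immunofluorescence after 24 hour compound treatment of a stable cell line. Titration data (5 concentrations) came from laser-scanning cytometry, with CCCP-treated wells as controls.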
# The depositor's hits bear a star; ? = inconclusive; & = joins results of further samples. Potency is the fitted concentration of half-maximal effect. Some of the compounds tested; rates above refer to the full screens.
SMILES,ClpP mod,PINK1 expr mod
CCC(CC)C(=O)Nc1ccc2nc(SCC(=O)N3CCCC3)sc2c1,-3.7%,0.1%
COc1ccccc1OCC(=O)NC1CC(=O)N(c2ccc3c(c2)OCCO3)C1 (stereo not given),-0.5%,3.2%
O=C(NCc1ccccc1)C1CCN(S(=O)(=O)Cc2ccccc2)CC1,-1.5%,4.0%
Cc1cc2n(n1)CCC(=O)N2Cc1ccc(C(=O)Nc2ccc(Br)c(C)c2)cc1,-1.5%,10%
CCOc1ccc(-n2nc(CO)c(C(=O)NCc3ccccn3)n2)cc1,11µM*,1.1%
COCCNC(=O)CSc1nc(-c2ccccc2)[nH]c1-c1ccc(C)cc1,32µM*,0.1%
COc1cccc2c(C)cc3nnc(SCC(=O)Nc4ccc(C)cc4)n3c12,-20%,3.4%
COc1ccc(-n2c(=O)c3ccccc3n(Cc3ccccc3Cl)c2=O)cc1,-4.7%,-0.2%
COCCNC(=O)C(=O)Nc1ccc2nc3n(c(=O)c2c1)CCCCC3,1.3%,14%
C[C@@H](c1ccccc1)N1C[C@@H](COCc2ccccc2)Oc2cc(N3CCC[C@H]3CO)ccc2S1(=O)=O,-26%,0.7%
O=C(Cn1c(=O)n2nc(-c3cccc(F)c3)nc2c2ccccc21)N1CCN(c2ccc(F)cc2)CC1,-6.4%,1.6%
CCOc1cccc(CC(=O)NCc2ccc3c(c2)CCN3C(=O)c2cccc(C)c2)c1OCC,-1.2%,-0.8%
COC(=O)c1ccccc1NC(=O)CCCS(=O)(=O)c1nc(-c2ccccc2OC)cc(C(F)(F)F)n1,2.6%,-0.2%
CCOC(=O)C1CCN(S(=O)(=O)c2ccc(N3CCCCS3(=O)=O)cc2)CC1,0.7%,-0.2%
COc1cc(OC)cc(-c2c(Sc3ccccc3)c3cc(-c4ccc(OC)c(F)c4)ccc3n2C)c1,-2.2%,3.4%
CCc1nc2ccccc2n1CCCCOc1cccc(C)c1,3.0%,?
Cc1cccc(N2CCN(C(=O)CN3C(=O)COc4ccc(S(=O)(=O)N5CCOCC5)cc43)CC2)c1C,0.8%,?
CCC1CCCCN1CCCNC(=O)c1cc2c(=O)n(CC)c3ccccc3c2s1 (stereo not given),-29%,9.3%
CCOc1ccc(NC(=O)Cn2c(=O)n(CCCCC(=O)NCc3ccc4c(c3)OCO4)c(=O)c3ccccc32)cc1,-1.0%,-1.2%
CC(=O)C1=C(c2ccccc2)N(C(C)=O)n2c(nnc2C2CCCCC2)S1,0.3%,?
CCCCNC(=O)CCn1c(=O)c2ccccc2n(Cc2cccc(Cl)c2)c1=O,-5.0%,-0.4%
Cc1ccc2nc(-c3ccsc3)c(Nc3ccccc3C)n2c1,3.6%,2.6%
Cn1c(=O)c(=O)n(C)c2cc(NS(=O)(=O)c3ccc(Br)cc3)c(Cl)cc21,-1.0%,-0.7%
CCOc1ccc(N2CC(c3nc4ccccc4n3CC(C)C)CC2=O)cc1 (stereo not given),-0.4%,2.1%
COc1ccc(-c2nc3scc(CCNC(=O)c4cc(OC)cc(OC)c4)n3n2)cc1,0.5%,3.0%
COCCCNC(=O)CCCN1C(=O)CCn2nc(-c3cn(C)c4ccccc34)cc21,-22%,1.0%
CCCCNC(=O)C[C@@H]1C[C@@]2(C(=O)OCC)CCC=C2N(Cc2cccc3ccccc23)C1=O,0.7%,1.7%
COc1ccc(CNC(=O)CCc2c(C)nc3cc(-c4ccc(OC)cc4OC)nn3c2C)cc1,-12%,1.0%
Cc1cc(Cl)ccc1NC(=O)CN1C(=O)COc2ccc(S(=O)(=O)N3CCC(C)CC3)cc21,-1.5%,-0.5%
O=C(CCC1N=C2c3ccccc3N=C(SCC(=O)Nc3ccccc3F)N2C1=O)NCc1ccco1 (stereo not given),-16%,0.8%
Cc1cc(C)c(NC(=O)Cn2c(=O)n(CCCCC(=O)NCc3ccccc3Cl)c(=O)c3ccccc32)c(C)c1,-3.4%,1.3%
CC(C)Oc1ccc(CNC(=O)c2ccc(CN3CC(=O)N4CCCCC4C3=O)cc2)cc1 (stereo not given),-1.0%,-1.1%
Cc1ccc(C2CC(=O)N(Cc3ccccc3F)c3c2c(C)nn3-c2nc(C)cc(C)n2)cc1 (stereo not given),-1.0%,2.6%
COc1cccc(-n2c(SCC(=O)Nc3ccc(F)cc3F)nc3c([nH]c4ccccc43)c2=O)c1,?,4.0%
CCOC(=O)c1c(C)[nH]c(C)c1S(=O)(=O)NCC(=O)Nc1cccc(SC)c1,-2.0%,1.6%
Cc1ccc2c(c1)C(=O)C(=O)N2Cc1ccc(OC(C)C)cc1,1.9%,7.6%
O=C(Cc1cccc(F)c1)NO,0.4%,1.0%
CC1=C(C(=O)NCCc2ccc(Cl)cc2)C2(CCCCC2)OC1=O,0.4%,1.2%
COc1ccc(N2C(=O)CS(=O)(=O)C23C(=O)N(Cc2cccc(F)c2)c2ccccc23)cc1OC (stereo not given),-3.4%,-5.1%
CCCCn1nnnc1C(c1cc2ccccc2o1)N1CCN(C(=O)OC(C)(C)C)CC1 (stereo not given),-0.8%,2.3%
CCC1CCc2c(sc(NC(=O)C3c4ccccc4Oc4ccccc43)c2C(=O)OC)C1 (stereo not given),4.0%,8.5%
CCc1cc(=O)oc2c3c(c(Cl)cc12)OCN(Cc1cccc(OC)c1)C3,4.4%,0.6%
COc1ccc(/C=C\C(=O)NC2CC(=O)N(c3ccccc3)C2)cc1OC (stereo not given),4.3%,0.4%
O=C(Nc1ccc(Br)cc1Cl)c1cnn2c1NC(=C1CC1)C=C2C(F)F,-0.4%,1.1%
O=C(NCc1cccc(F)c1)c1ccc(-n2cnc3cccnc32)cc1,-3.2%,0.2%
Oc1cccc(-c2sc3ccccc3c2-c2ccc(OCCN3CCCCC3)cc2)c1,?,-1.3%
Cc1ccc(-n2ncc(C(=O)NCCCN3CCc4ccccc4C3)c2C2CCN(C(=O)OC(C)(C)C)CC2)cc1C,-1.7%,-0.4%
COc1cccc(CNc2nc(Cl)nc3nc[nH]c23)c1,-1.6%&3.2%,-0.6%&0.1%
CC(C)Nc1ccc(-c2nc(-c3ccco3)no2)cc1[N+](=O)[O-],0.4%,1.1%
CCCN(Cc1cccs1)C(=O)Nc1cc(C)ccc1OC,0.1%,0.8%

# The final seven entries of the section before open the next one:
SMILES,ClpP mod,PINK1 expr mod
O=C(Nc1ccc(Br)cc1Cl)c1cnn2c1NC(=C1CC1)C=C2C(F)F,-0.4%,1.1%
O=C(NCc1cccc(F)c1)c1ccc(-n2cnc3cccnc32)cc1,-3.2%,0.2%
Oc1cccc(-c2sc3ccccc3c2-c2ccc(OCCN3CCCCC3)cc2)c1,?,-1.3%
Cc1ccc(-n2ncc(C(=O)NCCCN3CCc4ccccc4C3)c2C2CCN(C(=O)OC(C)(C)C)CC2)cc1C,-1.7%,-0.4%
COc1cccc(CNc2nc(Cl)nc3nc[nH]c23)c1,-1.6%&3.2%,-0.6%&0.1%
CC(C)Nc1ccc(-c2nc(-c3ccco3)no2)cc1[N+](=O)[O-],0.4%,1.1%
CCCN(Cc1cccs1)C(=O)Nc1cc(C)ccc1OC,0.1%,0.8%
COc1ccc(CC(=O)NCc2ccc3c(c2)CCN3C(=O)c2ccc(C)cc2)cc1OC,-0.6%,0.7%
Cc1c(C(=O)N2CCOCC2)oc2c1-c1nn(CC(=O)NCc3cccc(Cl)c3)cc1CC2,27%,-0.9%
CCOc1ccccc1NC(=O)Cn1cnc2c1c(=O)n(C)c(=O)n2C,-0.8%,0.6%
COc1ccccc1CNC(=O)CCC1N=C2c3ccccc3N=C(SCc3ccc(C)cc3C)N2C1=O (stereo not given),3.7%,0.4%
COc1nnc(-c2ccc(N3CCCCC3)c(NC(=O)c3ccccc3Cl)c2)c2ccccc12,-12%,?
CCN(CC)c1ccc(NC(=O)c2cc(S(=O)(=O)N3CCc4ccccc43)cn2C)c(C)c1,-11%,4.5%
Cc1ccc(-n2ncc3c(NNC(=O)c4ccccc4C)ncnc32)cc1,-17%,0.7%
COC(=O)CCN(C(=O)C1CCN(S(=O)(=O)c2c(C)noc2/C=C/c2ccccc2F)CC1)c1ccccc1,-10.0%,1.8%
Cc1ccc(Cl)cc1NC(=O)CSc1nccn1C,0.0%,3.0%
Cc1cccc(CNC(=O)CCCN2C(=O)CCn3nc(-c4cn(C)c5ccccc45)cc32)c1,-12%,7.2%
COCCNC(=O)CN1C(=O)COc2ccc(S(=O)(=O)N3CCCC3)cc21,-1.4%,-0.1%
COCCNC(=O)CCn1c(=O)[nH]c2cc(OC)c(OC)cc2c1=O,4.4%,0.3%
COc1cc(Cl)c(NS(=O)(=O)c2ccc(-c3cnc(C4CC4)o3)cc2)c(OC)c1,-10%,3.0%
CN1CCN(C(c2ccccc2)c2nnnn2C(C)(C)C)CC1 (stereo not given),0.0%,0.9%
COc1ccc(-c2cccc(NS(=O)(=O)c3cc(C(F)(F)F)ccc3Cl)c2)nn1,0.5%,-0.7%
COc1ccccc1NC(=O)c1cc2c(n(-c3ccc(C)cc3)c1=O)CC(C)(C)CC2=O,36%,1.0%
Cc1ccc2c(=O)cc(C(=O)Nc3sc4c(c3C(=O)NCc3cccnc3)CCCC4)oc2c1C,1.7%,26%
CC(=O)c1cccc(Nc2ccc3cc(S(=O)(=O)N4CCCC4)ccc3n2)c1,0.0%,5.7%
Cc1oc(-c2cccc(Cl)c2)nc1CN1CCC(C(=O)NC(C)C)CC1,-1.5%,0.8%
Nc1c(C(=O)Nc2ccccc2)nnn1Cc1ccc(F)cc1Cl,3.2%,-0.5%
Cc1ccc(CNC(=O)c2ccc(CSCc3c(F)cccc3Cl)o2)cc1,1.2%,4.3%
CCc1cc(=O)[nH]c(SCc2nc(-c3cccc(Cl)c3)no2)n1,-2.0%,0.8%
CCOC(=O)C1CCN(C(=O)c2ccc3c(c2)sc2nc(-c4ccc(OC)cc4)cn23)CC1,-27%,0.3%
CCCCn1nnnc1C(c1cc2ccccc2o1)N1CCN(CC(=O)N2CCCC2)CC1 (stereo not given),-1.8%,0.6%
Cc1ccc(C)c(OCCn2cc(C(=O)c3cccs3)c3ccccc32)c1,-20%,0.6%
CCCCN(CC)CCCNC(=O)c1nn(C)c2c1CSc1ccccc1-2,-3.3%,1.8%
Cc1ccc(C)c(NC(=O)Cn2nc(C)c3nn(-c4ccc(Cl)cc4)c(C)c3c2=O)c1,-3.0%,0.4%
CCOc1ccc2nc(N3CCCC(C(=O)NCc4ccccc4OC)C3)sc2c1 (stereo not given),0.5%,0.5%
COC(=O)c1c(-c2cccs2)csc1NC(=O)COc1ccccc1,?,1.2%
CCCCCCc1cc2cc(-c3nnc(-c4cccc(Cl)c4)o3)c(=O)oc2cc1O,-5.6%,-0.1%

# Quoted from the listing:
# In PINK1 expr mod, O=C(CCC1N=C2c3ccccc3N=C(SCC(=O)Nc3ccccc3F)N2C1=O)NCc1ccco1 (stereo not given) has the entry 0.8%
# In ClpP mod, Cc1ccc(C2CC(=O)N(Cc3ccccc3F)c3c2c(C)nn3-c2nc(C)cc(C)n2)cc1 (stereo not given) has the entry -1.0%
# In ClpP mod, CC(C)Oc1ccc(CNC(=O)c2ccc(CN3CC(=O)N4CCCCC4C3=O)cc2)cc1 (stereo not given) has the entry -1.0%
# In PINK1 expr mod, CCOC(=O)C1CCN(S(=O)(=O)c2ccc(N3CCCCS3(=O)=O)cc2)CC1 has the entry -0.2%
# In ClpP mod, Cc1cccc(CNC(=O)CCCN2C(=O)CCn3nc(-c4cn(C)c5ccccc45)cc32)c1 has the entry -12%

# Continuation:
SMILES,ClpP mod,PINK1 expr mod
O=c1c2oc3ccccc3c2n(Cc2ccc(Cl)cc2)c(=O)n1Cc1ccco1,0.2%,-0.4%
Cc1c(NC(=O)c2cccc3c(Cl)cccc23)cccc1-c1nc2ccccc2o1,-5.4%,2.0%
Cc1ccc(NC(=O)c2nnn(Cc3ccccc3)c2N)cc1C,13%,3.9%
CC1CCn2c(nc3cc(C(=O)NCc4ccc(OC(C)C)cc4)ccc32)C1 (stereo not given),0.9%,3.3%
CCOC(=O)c1c(C)[nH]c(C)c1S(=O)(=O)N1CCCC(C(=O)Nc2ccc(C)c(N(C)C)c2)C1 (stereo not given),-3.3%,-0.1%
Cc1ccc(S(=O)(=O)C(CNC(=O)c2ccc(C(F)(F)F)cc2)c2ccco2)cc1 (stereo not given),0.4%,3.4%
CCn1c(SCc2c(F)cccc2Cl)nc(=O)c2c(C(=O)OC)cc(C3CC3)nc21,0.0%,0.6%
COC(=O)c1cc2oc3ccccc3c2n1Cc1c(F)cccc1Cl,2.5µM*,0.3%
CCn1cc(/C=C(\NC(=O)c2cc(OC)c(OC)c(OC)c2)C(=O)NCCCn2ccnc2)c2ccccc21,-3.3%,-3.5%
CC(C)(C)OC(=O)N1CCC(c2c(C(=O)NCCc3ccccc3)cnn2-c2ccc(F)cc2)CC1,0.7%,?
CCN(Cc1ccccc1)c1ccc(/C=C/c2nccc3ccccc23)cc1,0.5%,2.0%
CCOC(=O)c1ccccc1NC(=O)CN1C(=O)CC(c2ccco2)Sc2ccccc21 (stereo not given),-29%,2.2%
Cc1cccc(Cn2cc3c(=O)n(CC(=O)Nc4c(C)cccc4C)nc-3c3cc(F)ccc32)c1,0.4%,1.8%
O=C(NCc1cccs1)c1ccc2c(c1)N(Cc1ccccc1Cl)C(=O)c1ccccc1S2,-1.7%,2.7%
Cc1cccc(-c2nc3scc(CCNS(=O)(=O)c4c(C)noc4C)n3n2)c1,0.1%,0.7%
Cc1cccc(C(=O)Nc2ccc(-c3nc4cc(C(C)C)ccc4o3)cc2)c1,?,8.7%
